Screening results from PubChem.
Arbovirus inh – blocks arbovirus infection; arbovirus infection cell-based antiviral screen; inhibition, % at 10 µM; 0.37% of 200,000 active; AID 1251;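 active = inhibition from about 30%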;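 note: bluetongue infection of BSR cells; cell survival read as ATP light after 72 h; 0% = infected wells without compound and 100% = uninfected wells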
YopH PTP inh – YopH (Yersinia) phosphatase inhibition | fluorescence Ex485/Em525 | inhibition, %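 (about 10 µM by stock and volumes)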 | 0.16% of 140,000 active | AID 898;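 active = inhibition of 50% or more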;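 note: controls were vehicle for no effect and minimum signal wells for full effect; inactives centre near -20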
Mtb growth – M. tuberculosis H37Rv growth inhibitors, H37Rv strain (AID 1626). M. tuberculosis H37Rv growth inhibition; higher % means a stronger effect. one-dose inhibition, % at 10 µM; IC50 in µM for titrated hits. 0.95% of 220,000 active;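 active = confirmed in a dose series; inconclusive = inhibition above 80% but not taken into the dose series; inactive = below 80% or under 30% at every dose of the series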;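 note: bacteria incubated seven days before Alamar blue readout; 0% = bacteria only wells and 100% = bacteria with antibiotic wells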
RecA intein inh – Mtb RecA intein splicing inhibition | 0.75% of 290,000 active | AID 2221 | cell-free RecA intein splicing, fluorescence | P9WHJ3 | inhibition, %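 (about 9 µM by stock and volumes)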; in the data active = inhibition above about 30%; inconclusive = no clear call, values can overlap the other calls;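 note: 0% = vehicle wells and 100% = reference inhibitor control wells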
Target sequence (P9WHJ3 whole entry, looked up): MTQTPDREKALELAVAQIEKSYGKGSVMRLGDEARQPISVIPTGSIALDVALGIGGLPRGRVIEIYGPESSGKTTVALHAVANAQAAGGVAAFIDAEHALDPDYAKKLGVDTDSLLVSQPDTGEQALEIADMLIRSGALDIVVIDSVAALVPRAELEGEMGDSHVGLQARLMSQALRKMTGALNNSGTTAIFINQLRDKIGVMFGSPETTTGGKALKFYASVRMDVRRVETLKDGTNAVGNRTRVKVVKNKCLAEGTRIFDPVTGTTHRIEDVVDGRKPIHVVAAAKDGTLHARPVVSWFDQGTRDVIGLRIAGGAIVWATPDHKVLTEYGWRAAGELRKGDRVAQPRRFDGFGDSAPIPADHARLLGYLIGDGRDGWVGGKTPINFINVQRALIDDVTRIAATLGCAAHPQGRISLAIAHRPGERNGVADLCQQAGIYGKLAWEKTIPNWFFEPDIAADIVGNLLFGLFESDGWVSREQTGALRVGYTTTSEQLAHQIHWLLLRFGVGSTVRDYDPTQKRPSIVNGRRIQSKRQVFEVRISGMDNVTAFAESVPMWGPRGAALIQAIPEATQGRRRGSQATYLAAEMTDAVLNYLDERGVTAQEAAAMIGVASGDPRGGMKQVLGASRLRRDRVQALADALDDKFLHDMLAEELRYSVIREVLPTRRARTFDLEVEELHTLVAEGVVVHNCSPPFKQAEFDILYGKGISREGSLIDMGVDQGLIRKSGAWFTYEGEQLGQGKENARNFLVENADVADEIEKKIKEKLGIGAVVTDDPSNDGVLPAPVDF
Mtb betalactam – beta-lactam sensitization of Mtb H37Rv; inhibition, % at 25 µM; 0.27% of 330,000 active; M. tuberculosis H37Rv growth with meropenem, percent inhibition; hits of this screen are not shown here;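 active = about 74% or more and at least 40 points above the plate without the antibiotic, then above 30% in a dose series; inconclusive = first-round hits that could not be retested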;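 note: growth measured after seven days incubation then overnight dye step; 0% = bacteria only wells and 100% = bacteria with antibiotic; twin plates without the antibiotic show which effects depend on it; some results filed as inactive read as strong as hits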
Arbovirus inh repeat – second read-out of Arbovirus inh, no call of its own (marks repeat the call); inhibition, %; measured here: 10K subset replicate screen; many hits read low in the repeat;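 first of two repeat runs on a subset; 0% = infected and 100% = uninfected wells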
An asterisk follows results filed as active; u = inconclusive; x = no result given; & = joins results of further samples. Only part of the results is shown. The share of hits here may be higher or lower than overall.

SMILES	Arbovirus inh	YopH PTP inh	Mtb growth	RecA intein inh	Mtb betalactam	others
CCOC(=O)c1[nH]c(C)c(C(=O)N2CCN(c3ccc(OC)cc3)CC2)c1C	2	x	9%	-1.3	-9
O=C1CC(=O)CC(c2ccccc2Cl)C1	-7	-7	-9%	5.2	-3
COC(=O)c1ccc(N2CCN(C)CC2)c(NC(=O)COc2ccc(OC)cc2)c1	0	-24	4%	0.9	43
COc1ccc(/C=C2\Oc3cc(OCC(=O)N4CCC[C@H]4CO)ccc3C2=O)c(OC)c1	x	x	x	1.1	-1
CC(=O)c1c(C)[nH]c(C(=O)NCc2ccco2)c1C	-1	x	5%	-0.4	-3
CCCc1nc2ccc(NC(=O)NCCC(=O)OCC)cc2c(=O)n1Cc1cccc(Cl)c1	4	16	0%	-1.0	-1
CC(=O)Cc1nsc(NC(=O)c2cccc(F)c2)n1	7	x	2%	-2.3	2
COc1cccc(CNS(=O)(=O)c2ccc3c(c2)NC(=O)CS3)c1	x	x	x	-1.8	5
CCc1ccc(-c2cnc3nc[nH]c(=O)c3n2)cc1	x	x	x	-5.2	22
Cc1cccc(CSc2nnc(CCNC(=O)OC(C)(C)C)o2)c1	x	x	15%	0.0	-3
O=C(NCc1ccc2c(c1)OCO2)c1cccc(S(=O)(=O)N2CCOCC2)c1	10	16	-9%	0.7	1
CC1(C)C([N+](=O)[O-])C(c2ccc(F)cc2)NC(c2ccc(F)cc2)C1[N+](=O)[O-] (stereo not given)	x	x	-5%	13	-10

Gathered by group, the compounds so far containing a Cl atom.
SMILES	Arbovirus inh	YopH PTP inh	Mtb growth	RecA intein inh	Mtb betalactam	others
O=C1CC(=O)CC(c2ccccc2Cl)C1	-7	-7	-9%	5.2	-3
CCCc1nc2ccc(NC(=O)NCCC(=O)OCC)cc2c(=O)n1Cc1cccc(Cl)c1	4	16	0%	-1.0	-1

Additional results follow:
SMILES	Arbovirus inh	YopH PTP inh	Mtb growth	RecA intein inh	Mtb betalactam	others
O=C(COC(=O)c1cnccn1)Nc1ncc(Cl)cc1Cl	x	x	x	7.4	-6
CC(C)CCNC(=O)CSc1nnc(-c2ccc(S(=O)(=O)N3CCCC3)cc2)n1C	-2	-9	-18%	3.1	3
COc1ccccc1NC(=O)C(=O)N/N=C/c1cccs1	-8	-24	-13%	-2.3	0
CCOC(=O)c1c[nH]c2c(C(=O)c3ccccc3)cc(Cl)cc2c1=O	x	x	x	0.0	-8
Cc1nn(Cc2ccc([N+](=O)[O-])cc2)c(=O)n1-c1ccc(F)cc1	10	-39	-1%	2.2	3
COc1ccc2oc(C(=O)OCC(=O)NC(C)(C#N)C3CC3)c(C)c2c1 (stereo not given)	x	x	x	-1.6	0
COc1ccc(Cl)cc1NC(=O)CNCc1cccs1	x	x	x	3.2	-1
O=C(c1ccco1)N1CCN(Cc2nnc(-c3ccccc3F)o2)CC1	x	x	x	0.3	2
Brc1ccccc1OCCCCCN1CCCC1	11	-28	-7%	0.4	1
COc1ccc(N2CCN(c3ccc(NC(=O)NN)cc3)CC2)cc1	x	x	x	-3.3	-3
COc1cccc(-c2c(NC(=O)c3ccco3)oc3ccc(Cl)cc3c2=O)c1	x	x	x	-4.0	5
Cn1c(CN2CCCC2)nc2cc(NC(=O)Nc3ccccc3)ccc21	3	-13	-2%	2.1	16
O=C(NCc1ccco1)c1cnc2ccccn2c1=O	-4	0	5%	-1.1	-6
CCc1cccc2c(C=C(C#N)C#N)cn(CC(=O)N3CCCCCC3)c12	4	-37	-3%	-9.3	-1
Cc1ccc(S(=O)(=O)/N=C(\CN2CCOCC2)N2CCOCC2)cc1	0	-18	-1%	1.0	-3
Cc1cccc2nc(Cn3c(=O)n(CCC(=O)NCc4ccco4)c(=O)c4sccc43)cc(=O)n12	13	-19	1%	4.2	-2
COc1ccccc1/C=C\C=N\NC(=O)CCn1nnc2ccccc21	-3	-24	6%	1.4	4
CSc1nc2ccc(N3C(=O)C4CCCCC4C3=O)cc2s1 (stereo not given)	11	-17	51%	-0.4	61
CCOC(=O)C1CCN(C(=S)NC2CC3C=CC2C3)CC1 (stereo not given)	x	x	-6%	0.5	-17
CS(=O)(=O)c1ccc(Cl)c(NC(=O)c2cccc(Br)c2)c1	-6	7	5%	-0.2	-2
Nc1nnnn1CC(=O)N/N=C/c1ccc(-c2cccc(Cl)c2)o1	7	x	6%	-4.5	-5
Cc1ccc2c(c1)C1CN(C)CCC1N2C(=O)COc1ccc(N(C)C(=O)c2ccccc2)cc1 (stereo not given)	4	x	-3%	4.1	3
CCCCCN(C(=O)NC(=O)Nc1ccc(C)cc1C)S(C)(=O)=O	3	x	2%	2.9	5
O=S(=O)(c1ccc(Nc2ccc(-c3ccc4c(c3)OCCO4)nn2)cc1)N1CCCC1	-8	-7	3%	4.3	-1
CCn1c(SCC(=O)N2CCCC2)nnc1-c1ccco1	x	x	x	3.2	-9
O=C(O)c1ccccc1NCCO	18	x	-1%	-0.8	0
COC(=O)Cc1ccc(NC(=O)c2ccc(C(C)(C)C)cc2)cc1	-5	-20	7%	1.5	67
Cc1ccc2[nH]c(=O)c(C(c3nnnn3C(C)(C)C)N(Cc3ccco3)CC3CCCO3)cc2c1 (stereo not given)	0	-20	-2%	-2.5	-5
CN(C)c1nc2n(c(=O)n1)C(C#N)CS2 (stereo not given)	5	-1	2%	0.7	-3
C=CCSc1nnc(NC(=O)CCNC(=O)c2ccco2)s1	x	x	x	-0.1	-10
CCOc1ccc(N2C(=O)/C(=C/c3ccccc3)N=C2SC)cc1	-10	x	-6%	-1.2	-7
CCOC(=O)Cc1nc2ccccc2[nH]1	7	4	-10%	-5.0	x
COC(=O)c1ccc(CN2CCN(CCCc3ccccc3)C(CCO)C2)cc1 (stereo not given)	-5	x	6%	-0.4	0
O=C(NC1CCCC1)c1cnn2c(C(F)(F)F)cc(-c3ccc4c(c3)OCO4)nc12	-5	7	-3%	-11	-4
CC(Sc1nnc(-c2ccc(C(C)(C)C)cc2)n1C)C(N)=O (stereo not given)	0	-21	-10%	x	-17
CC(C)(C)NS(=O)(=O)c1ccc(CCC(=O)NCc2ccccn2)cc1	x	x	x	-3.5	-3
O=C(Nc1cccc(Cl)c1)N1CCOCC1	x	x	x	-4.7	-8
Cc1ccc(Sc2cc(C(=O)NCCN(C)C)c3ccccc3n2)cc1	x	x	x	0.7	4
COc1cc(C(=O)N2CCN=C2c2ccccc2)cc(OC)c1OC	-5	-22	2%	x	-8
COC(=O)c1ccc(N2CCN(C)CC2)c(NC(=O)c2sc3ccccc3c2Cl)c1	x	x	x	3.9	100
C/C(=N\N1CCCCC1c1cccnc1)c1c(O)n(C2CCCCC2)c(=S)[nH]c1=O (stereo not given)	-3	0	23%	16	17
CC(NC(=O)c1cnccn1)c1ccc(S(N)(=O)=O)cc1 (stereo not given)	x	x	0%	2.7	-2
CN1C(=O)C2(C(C#N)=C(N)Oc3c2oc(CO)cc3=O)c2ccccc21 (stereo not given)	9	-6	-5%	4.3	3
Cc1cc(NC(=O)CSc2ccc(-c3ccc(Br)cc3)nn2)no1	x	x	x	-0.7	-10
C(=C\c1nnc2c3ccccc3ncn12)/c1ccccc1	-12	-22	6%	3.1	-2
CCCCc1nnc(NC(=O)Cn2cnc3ccccc3c2=O)s1	6	x	-1%	-1.4	0
O=c1c2ccccc2nc2n1C(CSc1ccc(Br)cc1)CN2 (stereo not given)	5	-29	7%	7.2	0
N#CC(=C=[N-])c1nc2ccccc2nc1-[n+]1cccc(NC(=O)c2ccccc2)c1	x	x	5%&-2%	-2.9&1.6	0&-2
CS(=O)(=O)N(CC(=O)Nc1ccccc1Sc1ccccc1)C1CCCCC1	-1	-3	2%	4.4	-18
CCCNC(=O)Nc1nc2ccccc2s1	x	x	-4%	-0.2	-8
Cc1cc(Nc2ccccc2)n(C(=O)c2ccc(N)cc2)n1	-3	11	72%	1.2	1
Clc1ccc2[nH]c(-c3ccccc3)cc2c1	-6	-22	9%	-4.5	4
COc1ccc(C/C(N)=N/OC(=O)C(c2ccccc2)c2ccccc2)cc1OC	-1	-37	-1%	x	17
Cn1cnnc1SCC(=O)Nc1ccc2nc(SCc3ccccc3F)sc2c1	6	-6	8%	1.7	6
C=C(C)CNC(=O)CCc1nnc(Cc2cccc(C(F)(F)F)c2)o1	5	x	-4%	-0.1	2
CC(C)(C)c1ccc(C(=O)N2CCCCCC2=O)cc1	-4	-18	5%	-4.2	-12
CCOC(=O)/C=C/C(=O)N1CCN(C(=O)/C=C/C(=O)OCC)CC1	x	x	-2%	0.8	-7
CC(=O)Nc1ccc(S(=O)(=O)N(C)CC(=O)NC2CCCC(C)C2C)cc1 (stereo not given)	x	x	x	-4.5	-11
CC12CCC(=O)N1C(C(=O)Nc1ccc(S(=O)(=O)N3CCCCC3)cc1)CS2 (stereo not given)	x	x	x	0.1	4
O=C1NC(NS(=O)(=O)c2ccccc2)(C(F)(F)F)C(=O)N1c1cccc(Cl)c1 (stereo not given)	x	x	x	8.7	8

Of the compounds above, these have a cyano group.
SMILES	Arbovirus inh	YopH PTP inh	Mtb growth	RecA intein inh	Mtb betalactam	others
COc1ccc2oc(C(=O)OCC(=O)NC(C)(C#N)C3CC3)c(C)c2c1 (stereo not given)	x	x	x	-1.6	0
CCc1cccc2c(C=C(C#N)C#N)cn(CC(=O)N3CCCCCC3)c12	4	-37	-3%	-9.3	-1
CN(C)c1nc2n(c(=O)n1)C(C#N)CS2 (stereo not given)	5	-1	2%	0.7	-3
CN1C(=O)C2(C(C#N)=C(N)Oc3c2oc(CO)cc3=O)c2ccccc21 (stereo not given)	9	-6	-5%	4.3	3
N#CC(=C=[N-])c1nc2ccccc2nc1-[n+]1cccc(NC(=O)c2ccccc2)c1	x	x	5%&-2%	-2.9&1.6	0&-2

(list continues)
SMILES	Arbovirus inh	YopH PTP inh	Mtb growth	RecA intein inh	Mtb betalactam	others
CC(=O)CCS(=O)(=O)c1ccc(NC(C)=O)cc1	-5	15	2%	x	-3
CCN(c1ccccc1)C1(O)C(=O)c2ccccc2C1=O	11	x	5%	-1.9	8
CCCc1cc(=O)oc2cc(OCc3ccc(OC)cc3)c(Cl)cc12	4	14	10%	1.2	-7
Cc1cc(C)c(S(=O)(=O)Nc2ccc(-c3cn4ccccc4n3)cc2)c(C)c1	-7	-10	4%	1.3	10
Cc1cc(C)nc(NC(N)=S)n1	x	x	-6%	-5.0	-2
COc1cc(OC)c(N(C)S(=O)(=O)c2cccc(C(=O)OCC(=O)c3c[nH]c4ccccc34)c2)cc1Cl	-4	-2	14%	-1.4	-6
NNC(=O)c1oc2nc(-c3cccs3)cc(-c3ccco3)c2c1N	x	x	x	-40	78
Cc1ccc2oc(C(F)(F)C(F)F)cc(=O)c2c1	x	x	-11%	-3.4	1
O=C(C1=C[C@@H](c2ccc(C(F)(F)F)cc2)C[C@@H](OCc2ccc(CO)cc2)O1)N1CCN(Cc2ccccc2)CC1	-17	x	9%	13	16
O=S(=O)(Nc1ccc2nc(-c3ccco3)[nH]c2c1)c1ccccc1	-3	-37	2%	-3.5	5
Cc1csc(NC(=O)CSc2ncnc3c2cnn3-c2ccccc2Cl)n1	16	-25	-9%	11	30
CC(C)C(=O)N(Cc1cc2ccccc2[nH]c1=O)C(C)(C)C	1	-25	x	x	8
Cc1onc(-c2c(Cl)cccc2Cl)c1NC(=O)NN(C)C	x	x	16%	1.8	3
CCSC1=C(C#N)C(c2ccccc2C)CC(=O)N1 (stereo not given)	-3	-41	-9%	2.0	1	Arbovirus inh repeat=1
Cc1cccc(C)c1NC(=O)C(c1cccs1)N(Cc1ccco1)C(=O)Cn1nnc2ccccc21 (stereo not given)	10	-26	-3%	0.0	-5
CC1(c2ccccc2Cl)NC(=O)N(CC(=O)NCc2ccc3c(c2)OCO3)C1=O (stereo not given)	x	x	x	-0.1	1
COc1ccccc1C(CCNCc1ccc(N(C)C)cc1)c1ccc(OC(C)C)cc1 (stereo not given)	x	x	x	21	100
O=C(O)c1ccc(Cl)c(NC(=O)C2CCCN2S(=O)(=O)c2cccc3nsnc23)c1 (stereo not given)	6	-38	0%	-1.5	u
O=C(Nc1ccccc1)C(c1ccccc1)c1ccccc1	x	x	x	-1.1	5
COc1cccc(C(=O)N2CCN=C2SC)c1	3	x	2%	0.7	-5
CCOc1cc(C=C2C(=O)NC(=O)NC2=O)ccc1OS(=O)(=O)c1ccccc1	-8	-17	8%	5.8	4
CC(NC(=O)C(=O)NCCC1=CCCCC1)c1ccccc1 (stereo not given)	-4	3	13%	-1.1	-8
COc1ccc(C(=O)N/N=C2/SCC(=O)N2Cc2ccc3c(c2)OCO3)cc1OC	2	-27	-2%	0.4	2
Cc1onc(-c2ccccc2Cl)c1C(=O)NC(=S)Nc1ccc(C(C)C)cc1	x	x	11%	3.7	-6
O=C(Nc1nc(-c2ccccc2)cs1)C1CCCN(S(=O)(=O)c2ccccc2)C1 (stereo not given)	5	-45	27%	4.0	-7
